MT1-MMP act inh: inhibitors of human MT1-MMP activation | P50281 | HT1080 RFP-PRO-GFP cells, GFP/RFP ratio fluorescence, overnight; percent of plate control window, DMSO zero | GFP/RFP ratio change, % at 20 µM | hit rate 0.061% among 360,000 | AID 651647;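 active = GFP/RFP ratio change of at least 30% with cell ATP level not reduced by more than half and red fluorescence within 50% of control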; also: strong numbers were not always called active
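Assay system: RFP-PRO-GFP reporter HT1080 cells; read-out basis: GFP/RFP fluorescence ratio; benchmarks: DMSO wells and RFP-L50D-GFP cells; doses: 20 µM single dose, 1% DMSO; schedule: overnight cell settling, then overnight compound exposure, 37 °C, 5% CO2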
UUG fidelity: yeast start codon fidelity modulation; S. cerevisiae UUG-firefly luciferase reporter, luminescence/redox ratio; AID 602363; hit rate 0.13% among 350,000; activity score, % at 18.7 µM;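 active = replicate mean at a twofold rise or more, about +100% in these data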;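 also: firefly luciferase made from a UUG start codon reports start codon fidelity; reporter light over untreated wells divided by growth signal over untreated wells; some hits fall short of that in this replicate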
Env fusion inh: blocks HIV Env-driven cell-cell fusion. HeLa-JRFL Env/CEM21 cell fusion, luciferase. inhibition, % at 12.3 µM. hit rate 1.1% among 360,000. AID 651610;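 active = mean replicate inhibition score of at least 50 and every replicate individually at or above 50; inconclusive = only one of the two criteria met; inactive = mean below 50 and not all replicates reaching 50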;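 also: 0% = plate neutral controls and 100% = maraviroc near 300 nM; one replicate is shown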
PABP polyA inh: blocks human PABP binding to poly(A) RNA. fluorescence polarization. hit rate 1% among 290,000. inhibition, % at 35 µM;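 active = 50% or more with normal probe brightness, or confirmed in later tests; inconclusive = above 50% with abnormal brightness, or retests that disagree; inactive = below 50% or failed in later tests; about a fifth of its hits are not listed in these tables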;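 also: calls also rest on retests at 20 µM and on dose response follow-up; controls were probe without protein and protein plus probe with vehicle; some compounds called inactive have numbers as strong as hits; many hits fall short of the cut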
Target sequence (P11940 whole entry, looked up): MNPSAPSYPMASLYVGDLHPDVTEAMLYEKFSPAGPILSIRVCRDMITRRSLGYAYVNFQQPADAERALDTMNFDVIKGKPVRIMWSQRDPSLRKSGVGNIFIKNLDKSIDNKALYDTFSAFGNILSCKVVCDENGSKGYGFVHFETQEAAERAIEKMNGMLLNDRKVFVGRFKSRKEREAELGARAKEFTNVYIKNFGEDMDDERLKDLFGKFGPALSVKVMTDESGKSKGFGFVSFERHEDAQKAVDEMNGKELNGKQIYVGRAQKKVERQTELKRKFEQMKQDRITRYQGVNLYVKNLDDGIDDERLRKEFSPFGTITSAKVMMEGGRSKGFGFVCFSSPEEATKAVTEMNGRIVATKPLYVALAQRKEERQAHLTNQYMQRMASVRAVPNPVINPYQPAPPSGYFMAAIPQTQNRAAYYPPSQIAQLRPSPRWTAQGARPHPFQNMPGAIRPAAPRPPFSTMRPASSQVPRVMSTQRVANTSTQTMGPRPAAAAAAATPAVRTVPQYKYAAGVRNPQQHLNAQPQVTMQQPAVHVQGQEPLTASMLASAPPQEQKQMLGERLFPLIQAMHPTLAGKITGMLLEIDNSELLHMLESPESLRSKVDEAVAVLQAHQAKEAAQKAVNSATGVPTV
Rce1 inh: inhibitors of yeast Ras-converting enzyme; Q03530; yeast membranes, quenched prenylated peptide cleavage fluorescence; calls only; hit rate 0.27% among 290,000;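 active = fall in fluorescence gain of 50% or more versus controls, with final raw signal at or below 3038400; inconclusive = same 50% fall but final raw signal above 3038400; inactive = fall in fluorescence gain under 50%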;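 also: plate controls were neutral control wells for no effect and wells lacking membranes for full effect; tested at 10 µM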
Target sequence (Q03530 whole entry, looked up): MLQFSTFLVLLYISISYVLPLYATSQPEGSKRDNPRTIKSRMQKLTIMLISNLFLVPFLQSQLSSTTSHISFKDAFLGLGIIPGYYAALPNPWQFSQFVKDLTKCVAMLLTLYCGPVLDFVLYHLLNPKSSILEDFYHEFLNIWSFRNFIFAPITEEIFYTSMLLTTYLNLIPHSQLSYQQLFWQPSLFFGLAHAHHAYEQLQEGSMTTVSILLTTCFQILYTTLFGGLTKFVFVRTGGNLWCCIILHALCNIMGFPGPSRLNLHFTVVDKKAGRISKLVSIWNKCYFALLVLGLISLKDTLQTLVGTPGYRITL
eIF4H FP inh: inhibitors of RNA binding by human eIF4H. hit rate 0.94% among 290,000. inhibition, % at 35 µM. Q15056. eIF4H fluorescence polarization binding assay;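 active = 50% or more with normal probe brightness, or confirmed in later tests; inconclusive = above 50% with abnormal brightness, or retests that disagree; inactive = below 50% or failed in later tests; about a fifth of its hits are not listed in these tables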;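 also: calls also rest on retests at 20 µM and on dose response follow-up; 0% = protein and probe with vehicle and 100% = probe without protein; strong numbers were not always called active; many hits fall short of the cut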
CSC inhib: cancer stem cell inhibition. hit rate 1.1% among 300,000. cancer stem cell-like cells viability, luminescence. inhibition, % at 7.5 µM;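 active = mean at 75% or more and at least half the replicates too; inconclusive = mean and replicates disagree; tested in HMLE shEcad cells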;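 also: 0% = median of negative and 100% = median of positive control wells; the first replicate is given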
eIF4H FP inh retest: also measured in eIF4H FP inh; calls as there; inhibition, %; compound at 20 µM; confirmation average;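 mean of two retest wells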
PABP polyA inh retest: recorded beside PABP polyA inh, whose call it bears; inhibition, %; compound at 20 µM; confirmation repeats;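 mean of two retest wells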
MT1-MMP act inh RFP: also measured in MT1-MMP act inh; calls as there; RFP signal change, %; measured here: RFP expression control read;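 0 = vehicle wells; hits needed this value within 50% of zero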
An asterisk follows results filed as active; i = inactive; ? = inconclusive; . = not tested or not shown; & = joins results of further samples; [ ] = another dose, or the depositor's remark. These rows are one share of the data; count on the stated rates, not on these rows.

SMILES	MT1-MMP act inh	MT1-MMP act inh RFP	UUG fidelity	Env fusion inh	PABP polyA inh	Rce1 inh	eIF4H FP inh	CSC inhib	others
O=C(Cc1ccc(Br)cc1)N1CCCC1	-1	-2	-15	-3	-1	i	0	-6
COc1ccc(S(=O)(=O)N/N=C(/C)c2ccc(Cl)cc2)cc1	2	1	-13	.	16	i	11	11
CN(NC1CC(=O)N(c2ccccc2)C1=O)c1ccccc1 (stereo not drawn)	-2	2	.	28	-11	.	4	2
COc1ccc(/C=C(\NC(=O)c2ccc(OC)cc2)C(=O)Nc2ccc(C(=O)O)cc2)cc1	6	5	-14	16	-2	i	4	-6
C/C=C/c1ccc(OCCCCOc2ccccc2C(C)=O)c(OC)c1	-1	-5	.	2	2	i	6	51
CN1CCN(C(=O)C2=C[C@@H](c3coc4ccccc4c3=O)C[C@@H](OCc3ccc(CO)cc3)O2)CC1	-1	-1	11&-9	6[16.7 µM]	-12	i	-8	-3
CCn1c(/C=C/Nc2ccccc2)[n+](CC)c2cc(Cl)c(Cl)cc21	-3	4	-3	.	3	i	-5	10
CCOC(=O)c1ccccc1NC(=O)COC(=O)c1cc([N+](=O)[O-])ccc1N1CCOCC1	1	-8	.	10	.	i	.	-1
Cc1ccc(S(=O)(=O)N2CCCCC2)cc1NC(=O)COC(=O)c1ccc2c(c1)OCO2	7	10	-15	-10	61	i	2.0*	-20	eIF4H FP inh retest=88*;PABP polyA inh retest=31
O=C(Nc1cccnc1)C1Cc2c(-c3ccc4c(c3)OCO4)ccnc2O1 (stereo not drawn)	-3	-15	-4	-1	.	.	.	.
COc1cc(OC)cc(C(=O)Nc2nnc(SCC(=O)NCC3CCCO3)s2)c1 (stereo not drawn)	-2	1	21	9	-16	i	-6	0
COc1ccc(Br)c2oc(S)cc(=O)c12	-3	2	-35	9	16	i	7	-2
COc1ccc(NC(=O)CSc2nnc(-c3cccnc3)n2C)cc1	2	3	-6	8	-5	i	-2	-6
CN1C[C@@H]2[C@@H]3C(=O)N(C)C(=O)[C@@H]3[C@](Cc3ccccc3)(C1=O)N2C(=O)c1ccc(Cl)cc1	2	2	0	7	.	.	.	.
Fc1ccc(Nc2ncnc3sc4c(c23)CCC4)cc1F	4	6	.	27	40	i	8	34
Cc1cc(C)cc(OCC(=O)NC(C)c2ccccc2)c1 (stereo not drawn)	-3	-2	-3	8	-26	i	5	-4
COc1cc(-c2nc(CN3CCN(c4ncccn4)CC3)c(C)o2)ccc1F	3	2	.	9	-8	i	-2	6
Cn1ncc2c(NNC(=O)c3ccc(O)cc3)ncnc21	0	-3	.	-3	10	i	-3	.
CC1CCN(C(=O)CCN2C(=O)/C(=C/c3cccs3)SC2=S)CC1	6	2	-5	6	-5	.	33	37
O=C(NCc1ccco1)C(c1ccccc1)N(CC1CCCO1)C(=O)Cn1nnc2ccccc21 (stereo not drawn)	-3	-3	.	.	.	i	.	-8
CC(C)(C)OC(=O)N1CCC(c2c(C(=O)NCC3CCN(C4CCCC4)C3)cnn2-c2ccccc2Cl)CC1 (stereo not drawn)	-3	-2	-5	3	2	i	-14	-12
CCn1cc(C(=O)N2CCCC(C(=O)c3cccc(C(F)(F)F)c3)C2)cn1 (stereo not drawn)	2	-1	-7	1	.	.	.	.
COc1cccc(NS(=O)(=O)c2ccc3[nH]cc(C(=O)N(C)Cc4ccco4)c(=O)c3c2)c1	-1	1	.	.	-6	i	16	.
CCn1c(C)csc1=NC(=O)c1ccccc1	-1	4	-7	-15	5	i	-1	-9
Cc1c(C(=O)N2CCCC2)c(S(=O)(=O)N2CCCCC2)c(C)n1C	-5	-2	-3	-1	1	i	-5	3
Cc1ccc([C@@H]2C[C@H]3[C@@H](CN2S(=O)(=O)c2ccc(C)cc2)C(=O)C[C@@H](c2ccc(Cl)cc2)N3S(=O)(=O)c2ccccc2C)cc1	-5	-6	-9	4	.	.	.	.
Nc1c(Cl)cc(-c2csc(N3CCCC3c3nc4cc(Cl)c(N5CCCCC5)cc4n3CCCO)n2)cc1Cl (stereo not drawn)	-1	-1	-18	44	.	i	.	-5
CCOC(=O)c1ccc(NC(=O)COc2ccc(S(=O)(=O)NC(C)(C)C)cc2)cc1	2	-3	0	.	-4	i	-3	-13
CC(C)(C)OC(=O)NCc1ccc(NC(=O)c2nc[nH]c2C(=O)NCCCCCCNC(=O)c2[nH]cnc2C(=O)Nc2ccc(CNC(=O)OC(C)(C)C)cc2)cc1	2	-2	-11	?	.	.	.	5
COc1ccc(CCNc2nc(C)c(C(C)=O)s2)cc1OC	-3	5	-16	.	9	i	-13	-19
NNC(=O)CSCc1nc(-c2ccc(Cl)cc2)cs1	3	-3	-15	-13	-7	i	-11	5
CC(=O)O[C@]1(C(C)=O)CC[C@H]2[C@@H]3C=CC4=CC(=O)C=C[C@]4(C)[C@H]3CC[C@@]21C	3	-3	5	-16	4	i	5	10
CCc1ccc(OCC(=O)NC(NC(=S)Nc2ccccc2)C(Cl)(Cl)Cl)cc1 (stereo not drawn)	-5	-11	-12	-3	-15	i	-14	.
O=C(CCc1ccccc1)NNC(=O)c1ccccc1Cl	2	5	-9	-1	6	i	3	-22
Cc1ccc(OC(C)C)c(CN(CCO)CCO)c1	-1	2	9	.	30	i	-4	-12
COCCNc1nc(NCc2cccc(OC)c2OC)c2sccc2n1	5	-3	-23	-2	.	.	.	.
Cc1cccc(NS(=O)(=O)c2ccc(NS(=O)(=O)c3cccs3)cc2)c1	6	5	-7	0	66	i	-1	-7	eIF4H FP inh retest=-8;PABP polyA inh retest=6
CCC(=O)N1CCC1(C)C(=O)NS(=O)(=O)c1cccc(C#N)c1 (stereo not drawn)	0	2	-14	7	.	.	.	.
O=C(C1CCCN(Cc2ccccc2)C1)N1CCc2ccccc2C1 (stereo not drawn)	1	8	4	-60	11	i	-3	-3
COc1ccc(/C=N/NC(=O)CC(=O)NCc2cccnc2)cc1	2	5	-7	.	0	i	-4	-12

Compounds above with an aryl thioether with sulfur outside any ring (2):
SMILES	MT1-MMP act inh	MT1-MMP act inh RFP	UUG fidelity	Env fusion inh	PABP polyA inh	Rce1 inh	eIF4H FP inh	CSC inhib	others
COc1cc(OC)cc(C(=O)Nc2nnc(SCC(=O)NCC3CCCO3)s2)c1 (stereo not drawn)	-2	1	21	9	-16	i	-6	0
COc1ccc(NC(=O)CSc2nnc(-c3cccnc3)n2C)cc1	2	3	-6	8	-5	i	-2	-6

(continued)
SMILES	MT1-MMP act inh	MT1-MMP act inh RFP	UUG fidelity	Env fusion inh	PABP polyA inh	Rce1 inh	eIF4H FP inh	CSC inhib	others
CCCCc1ccc(NC(=O)Cn2c(=O)c(N3CCCCC3)c(N)n(C)c2=O)cc1	6	-1	-12	10	.	.	.	-11
CCCCOC1CC(c2ccc(OCc3ccc(OC)cc3)c(OC)c2)N(C)O1 (stereo not drawn)	-2	-16	.	19	-6	i	-1	.
CC(C)CCSc1ncnc2c1oc1nc3c(cc12)COC(C)(C)C3	0	1	-25	.	-1	i	-9	.
COc1cc2ccccc2cc1C(=O)Nc1ccc(N2CCOCC2)cc1	-2	0	-7	12	-7	i	-2	10
COc1cc(C(=O)N2CCOC23CCN(Cc2ccccc2)CC3)cc(OC)c1OC	0	1	-12	-17	.	.	.	.
O=C1c2ccccc2C(=O)N1CN(C(=O)COc1ccccc1)c1ccc(F)cc1	-8	-2	20	30	-2	i	2	7
CN(C(=O)c1cccc(NC(=O)Cc2ccc(NC(=O)C3CCCN(C(=O)C4CC4)C3)cc2)c1)C1CC1 (stereo not drawn)	9	9	-8	-1	.	.	.	.
COC(=O)c1ccc(-c2noc(CN(Cc3ccccn3)CC3CCCO3)n2)cc1 (stereo not drawn)	-4	-5	.	-6	1	i	-1	-1
Cc1noc(C)c1COC(=O)c1cc(C)n(-c2ccccc2)c1C	-3	-11	-18	-2	6	i	5	-20
Cc1csc(NC(=O)CCc2ccc(S(=O)(=O)N3CCOCC3)cc2)n1	-5	1	-3	.	-5	i	-5	-6
c1ccc2oc(-c3[nH]ncc3CN3CCC(N4CCSCC4)CC3)cc2c1	3	-5	.	-12	-3	.	-8	0
Cc1ccc(NC(=O)CCCN2C(=O)NC(C)(C)C2=O)cc1	1	0	-5	-3	.	.	.	.
Cc1ccc(S(=O)(=O)N(CC(O)CN(C)C)c2ccccc2)cc1 (stereo not drawn)	-5	2	-11	-42	0	i	-4	3
Cc1ccc(NC(=O)CCc2c(C)nn(-c3ccc(N4CCOCC4)nn3)c2C)c(C)c1	-2	-3	-19	-4	4	i	2	-3
Cn1c(SCC(=O)c2ccc3c(c2)Cc2ccccc2-3)nnc1-c1cccc(N)c1	4	1	.	-10	5	i	16	-5
CN(C(=O)C1CCOC1)c1nnc(-c2cnccn2)s1 (stereo not drawn)	-13	-3	-19	-25	0	i	1	4
CCOc1ccc(Cc2c(Cl)nc(SC)nc2OC)cc1	1	-3	-15	36	-7	i	6	-4
Cc1nc2ccccc2c2c1C(=O)NC2=O	.	.	.	.	-1	i	8	3
NCCCNC(=O)c1ccc(/C=N/O)nc1	-3	-3	-14	2	3	i	-9	1
Cc1cc(C)n(-c2ccc(Cl)c(C(=O)OCC(N)=O)n2)n1	5	7	-8	-3	2	i	5	0
CCOC(=O)c1ccc(NC(=S)N2CCN(c3ccccn3)CC2)cc1	2	0	-29	2	7	i	9	-14
CSc1nnc2n(C)c3c(c(=O)n12)C1(CCCC1)Cc1ccccc1-3	-3	-5	-9	-79	0	i	-11	47
N=C1/C(=C\c2ccc(Br)o2)C(=O)N=C2SC(CC(=O)N3CCOCC3)=NN12	11	27	-14	-4	35	i	45	-4
C=C(C1=CCN(S(=O)(=O)C(C)(C)C)[C@H]1CCO)c1ccccc1	0	0	-7	2	.	.	.	.
COc1cc2cc(C(c3nnnn3C3CCCCC3)N(C)C3CCCCC3)c(=O)[nH]c2cc1OC (stereo not drawn)	-14	-9	.	.	10	i	-16	-15
COc1ccccc1NS(=O)(=O)CC12CCC(CC1=O)C2(C)C (stereo not drawn)	-1	-1	-7	-50	4	i	6	3
O=C(CN1CCN(Cc2ccc(Cl)cc2)C1=O)NCc1cccs1	1	0	-9	-2	-13	i	-3	3
CCCCOc1ccc(C(=O)NCC(=O)N(C)CC(=O)Nc2ccc(N3CCOCC3)cc2)cc1	0	-15	-14	.	.	i	.	-4
CC1(C)CC(=O)CC(C2(O)C(=O)N(Cc3ccccc3)c3ccccc32)O1 (stereo not drawn)	2	5	9	0	-21	i	-2	3
O=C(NCC1CCN(S(=O)(=O)c2ccccc2)CC1)Nc1ccc(F)cc1F	0	-5	.	-41	-3	i	-10	3
CCOC(=O)c1c(NC(=O)C2CCCN2S(=O)(=O)c2cccc3nsnc23)sc(C)c1C (stereo not drawn)	-6	-15	-19	64*	.	.	.	.
CCOC(=O)c1ccc(NC(=O)Cn2nc(C)c3ccccc3c2=O)cc1	-2	2	4	21	1	i	-11	-10
COc1ccc(-c2c(C)n([O-])c(C)c(-c3ccccc3)[n+]2=O)cc1OC	-2	1	4	-31	-7	i	1	-2
CC(=O)Nc1csc2ccccc12	-7	-1	.	-7	6	i	2	-12
O=C(NCc1ccc(Cl)cc1Cl)c1ccccn1	1	-1	-8	17	11	.	-3	-2
Cc1cccc(C(=O)OCC(=O)c2csc(N3CCCCC3)n2)c1[N+](=O)[O-]	0	1	-22	7	.	.	.	-1
CCOC(=O)N1CCN(C(=S)Nc2cccc(C)c2)CC1	0	4	-25	-24	-9	i	8	-6

Screens: PubChem BioAssay, several laboratories
